VACV Venus inh – qHTS for Stage-Specific Inhibitors of Vaccinia Orthopoxvirus: Venus Reporter Primary qHTS | Vaccinia virus Venus reporter expression, fluorescence | Potency, µM (doses to about 36.5 µM), for inactives: at the highest dose activity change, negative = inhibition, usual class: inhibitors | 330,000 compounds, 0.46% hits; active means well fitted inhibition curve with a large enough effect; inconclusive means small, poorly fitted or top-dose-only effect; inactive means no such curve, though single readings can be large or run the other way; tested in A549 cells; note: nearly all actives have a fitted effect of over 30% in size; inactives centre near -10
Vaccinia mCherry – qHTS for Stage-Specific Inhibitors of Vaccinia Orthopoxvirus: mCherry Reporter Primary qHTS | 310,000 compounds, 0.63% hits | AID 720579, 2013 | Vaccinia virus mCherry reporter infection, fluorescence; about a quarter of the inactives have no number | Potency, µM (series often up to 36.5 µM), without a hit: at the highest dose activity change, negative = inhibition, usual class: inhibitors; active = well fitted inhibition curve with a large enough effect; inconclusive = small, poorly fitted or top-dose-only effect; inactive = no such curve, though single readings can be large or run the other way; tested in A549 cells; note: nearly all actives have a fitted effect of over 35% in size; inactives centre near -10
An asterisk follows results filed as active; i = inactive; ? = inconclusive; nt = no result given; & = joins results of further samples; [ ] = another dose, or the depositor's remark. % is set by controls: 0 for no effect and ±100 for the full control effect; potency is the fitted concentration of half-maximal effect.

Fields – VACV Venus inh	Vaccinia mCherry
> CC(C)(C)c1ccc(CNC(=O)C2CCCN2C(=O)Nc2ccccc2)cc1 (centres undefined)
  -15.4%	-11.3%
> CCC(C(=O)OCC(=O)Nc1c(Cl)cccc1Cl)c1ccccc1 (centres undefined)
  -4.1%	-11.1%
> COc1ccc(C(=O)/C=C/c2ccc(OC)c(CN3CCOCC3)c2)cc1
  ?	10µM*
> O=C(/C=C/c1ccc(Br)cc1)c1ccc(NC(=O)c2ccco2)cc1
  ?	?
> O=C(CCCCn1cnc2c(=S)nc[nH]c21)Nc1ccc(C(=O)O)cc1
  -11.2%	i
> COc1cc(NC(=O)c2cnc(NCc3ccccc3)nc2C)cc(OC)c1OC
  -20.1%	?
> O=C(NNC1CC(=O)N(c2ccccc2)C1=O)c1ccco1 (centres undefined)
  3.2%	-0.6%
> O=C(NCc1nnnn1-c1ccc(F)cc1)c1ccc2ccccc2c1
  -4.7%	-13.0%
> CCOC(=O)c1sc2ncn(CC(=O)Nc3ccc(F)cc3F)c(=O)c2c1C
  -9.3%	-2.8%
> Cc1cc(C)c(NC(=S)N(CCN(C)C)C(C)c2cccnc2)c(C)c1 (centres undefined)
  -10.4%	-11.9%
> CC(=O)Oc1ccc(C(=O)Nc2ccccc2C(=O)NCC(C)C)cc1
  -20.4%	-2.8%
> COCCN(C(=O)COC(=O)CSc1ccc2ccccc2c1)c1c(N)n(Cc2ccccc2)c(=O)[nH]c1=O
  -8.0%	i
> Cc1ccc(NC(=O)CCn2c(=O)c3cccn3c3ccccc32)c(Cl)c1
  -6.2%	0.5%
> COC(CNC(=O)C(=O)Nc1cc2c3c(c1)CC(=O)N3CCC2)OC
  -3.3%	-16.3%
> CC1(C)CC(=O)C2=C(C1)Nc1ccccc1NC2c1cccc(F)c1 (centres undefined)
  -9.7%	i
> COc1ccc(NC(=O)C(NC(C)=O)C(=O)NCc2ccccc2OC)cc1 (centres undefined)
  -6.1%	nt
> O=C(NC1CCSc2ccccc21)c1cccc(S(=O)(=O)N2CCOCC2)c1 (centres undefined)
  -11.2%	-17.9%
> Cn1c(CCNC(=O)c2ccco2)nc2ccccc21
  -1.8%	-12.1%
> CCOc1ccc(N2C(=O)CC(Sc3nc(O)c(CC)c(=O)[nH]3)C2=O)cc1 (centres undefined)
  -11.3%[7.34 µM]	-0.5%[7.34 µM]
> Cc1ccc(CNC(=O)C2CCC(=O)N2C(C)C)cc1 (centres undefined)
  -5.6%	i
> Cc1ccc(C2=NO[C@@](CC(=O)O)(C(=O)Nc3ccc4c(c3)OCCO4)C2)cc1
  -6.3%	-3.4%
> O=C(CNC(=O)c1nc[nH]c1C(=O)N1CCc2ccccc2C1)OCc1ccccc1
  -18.1%	i
> COc1ccc(OCCCC(=O)Nc2cccc([N+](=O)[O-])c2)cc1
  -5.2%	i
> Cc1nc(N)sc1C(=O)NN
  -2.9%	-2.5%
> Cc1cccc(CN(C)C[C@H]2OCc3cnnn3CCCC(=O)N([C@@H](C)CO)C[C@@H]2C)c1
  -13.4%	-18.1%
> CC(C)c1cc(C(=O)O)n[nH]1
  -1.0%	-10.2%
> COC(=O)c1c(NC(=O)CSc2nnc(Cn3nnc4ccccc43)n2C)sc(C)c1C
  -14.1%	-12.8%
> Cc1csc(CN(C)C(=O)C2CCC(=O)N(CCCc3ccccc3)C2)n1 (centres undefined)
  -13.0%[7.34 µM]	0.0%[7.34 µM]
> CC1CCCCN1CCCNC(=O)c1[nH]c2ccccc2c1Sc1ccc(Cl)cc1 (centres undefined)
  -22.6%	-17.8%
> CC(C)(C)P(=O)(c1ccncc1)N1CCCC1 (centres undefined)
  -2.8%	-12.0%
> COc1ccc(NC(=O)C2CCCC2)cn1
  -5.6%	-9.0%
> COC1=CC(=O)C[C@@H](C)[C@]12Oc1c(Cl)c(OC)cc(OC)c1C2=O
  -26.7%&-24.7%	-6.1%&-0.2%
> CC(=O)OC1CC2C(C)(C)C(O)C=C[C@@]2(C)C2CC[C@]3(C)C(=CC(=O)OC3c3ccoc3)[C@]12C (some centres undefined)
  -13.3%	-2.9%
> COc1ccc(/C=C(\NC(=O)c2ccccc2Cl)C(=O)NCCCC(=O)O)cc1
  -18.0%	i
> CC(=O)NC(CCS(C)(=O)=O)C(=O)Nc1ccc2c(c1)OCCO2 (centres undefined)
  -5.6%	i
> CCNc1nc(NCC)nc(NC(N)=S)n1
  -8.0%	i
> Cc1cc(C(=O)O)cc(Br)c1N
  -2.9%	4.3%
> C[C@@H]1CN([C@H](C)CO)C(=O)c2cc(NS(=O)(=O)c3cccs3)ccc2O[C@H]1CN(C)Cc1ccccc1
  -13.8%	-0.3%
> CCC/C(=N\NC(=O)CCC(=O)NCc1ccccc1)c1ccccc1
  -16.8%	-23.1%
> COc1nc2c(s1)C(=O)NCCC2
  -9.8%	nt
> O=C(COc1ccccc1)NC1CCCCC1
  -14.7%	-7.6%
> Cn1c(=O)c2c(nc(CN3CCOCC3)n2CC(=O)c2ccccc2)n(C)c1=O
  10.3%	nt
> COc1cccc(/C=C/C(=O)NCc2ccc3c(c2)OCO3)c1
  -3.4%	-7.1%
> COc1ccc(C2NN=C(c3ccc(C)cc3)S2)cc1 (centres undefined)
  -17.7%	-3.8%
> Cc1c(NC(=O)COc2ncnc3ccccc23)c(=O)n(-c2ccccc2)n1C
  -2.4%	-10.9%

The list goes on:
SMILES	VACV Venus inh	Vaccinia mCherry
Cc1ccc2nc3c(cc(C(=O)NC4CCCC4)c(=N)n3C3CCCCC3)c(=O)n2c1	-3.5%	-25.9%
Nc1ccc(N2CCOCC2)c(S(=O)(=O)Nc2cc(Cl)ccc2Cl)c1	-6.7%	-8.7%
COC(=O)C[C@H]1C=C[C@H](NC(=O)Nc2ccccc2)[C@@H](CO)O1	-24.8%	?
O=[N+]([O-])c1ccc2nc(-c3ccccc3)cc(-c3ccccc3)c2c1	-6.1%	-15.0%
CC(C)N1CC2(CC(c3ccccc3F)=NO2)CN1C(=O)c1ccc(C(C)(C)C)cc1 (centres undefined)	-9.1%	-10.0%
CCOc1ccc(C(=O)Nc2ccc(C(=O)N3CCOCC3)cc2)c(OCC)c1	-5.4%	-7.2%
NS(=O)(=O)c1ccc(NC(=O)COC(=O)C2CC(=O)N(Cc3ccccc3)C2)cc1 (centres undefined)	-8.1%	i
COc1ccc(OC)c(NC(=O)Cc2csc(NC(=O)Nc3ccccc3OC)n2)c1	-26.8%	-29.4%
Cc1cc(C(=O)N[C@@H](c2ccccc2)[C@]2(C)C[C@H]2[C@@H](C)C(=O)Nc2ccc3ccccc3c2)no1	-18.9%	-17.9%
COc1cc2c(=O)n(CC3CCCO3)c(=O)n(CC(=O)Nc3ccccc3)c2cc1OC (centres undefined)	-4.5%	i
Cc1ccc(C2CC(=O)N(Cc3ccccc3)c3c2c(C)nn3-c2nc(C)cc(C)n2)cc1 (centres undefined)	-12.5%	-3.0%
O=C(CNC(=O)c1ccc(S(=O)(=O)N2CCCC2)cc1)N/N=C/c1c(Cl)cccc1Cl	-23.5%	?
Cc1ccc(N2C(=O)N(CC(=O)c3cc(C)ccc3C)C(=O)C2C)cc1 (centres undefined)	-2.5%	i
O=C(CNC(=O)c1ccccc1)OCC(=O)c1c[nH]c2ccccc12	0.0%	i
CCCC[C@@H](C)[C@@H](OC(=O)C[C@@H](CC(=O)O)C(=O)O)[C@H](C[C@@H](C)C[C@H](O)CCCC[C@@H](O)C[C@H](O)[C@H](C)N)OC(=O)C[C@H](CC(=O)O)C(=O)O	-16.7%[20.9 µM]	-21.2%[20.9 µM]
Cc1ccc(CCNS(=O)(=O)c2c(C)nc3sc(C)c(C)n3c2=O)cc1	-13.3%	-13.4%
COc1ccc(OC)c(NC(=O)Cn2cc(C(=O)c3ccco3)c3ccccc32)c1	-15.7%	-26.3%
O=C(O)CCc1ccc(-c2ccc(Cl)cc2)n1Cc1ccco1	-2.9%	0.2%
O=C(COc1ccc(S(=O)(=O)Nc2cccc(C(F)(F)F)c2)cc1)N1CCOCC1	-1.0%	-21.3%
Cn1c(=O)c2sccc2n(CC(=O)NCCC2=CCCCC2)c1=O	0.0%	-1.0%
Cn1c(C(=O)N2CCC(C(N)=O)CC2)cc2cc(Cl)ccc21	-9.9%	-13.1%
CS(=O)c1ccc(-n2c(=O)n(Cc3ccccc3)c(=O)c3[nH]cnc32)cc1 (centres undefined)	-0.2%	-26.9%
CCOC(=O)C1=CC[C@@H](c2ccccc2C(F)(F)F)N(S(=O)(=O)c2ccc(C)cc2)[C@H]1c1ccc(C#N)cc1	-3.8%	i
CN1C(=O)N(C)C2(c3ccccc3)N(C(C)(C)C)C(=O)NC12c1ccccc1 (centres undefined)	5.1%	-6.4%
CN(Cc1ccccc1)C(=O)c1oc(=O)c2ccccc2c1-c1ccccc1	-16.4%	i

Record cards, as listed above. Screens in order: VACV Venus inh	Vaccinia mCherry
Shown for CCOc1ccc(C(=O)Nc2ccc(C(=O)N3CCOCC3)cc2)c(OCC)c1 = -5.4%	-7.2%
Shown for Cn1c(C(=O)N2CCC(C(N)=O)CC2)cc2cc(Cl)ccc21 = -9.9%	-13.1%
Shown for CN(Cc1ccccc1)C(=O)c1oc(=O)c2ccccc2c1-c1ccccc1 = -16.4%	i
Shown for CS(=O)c1ccc(-n2c(=O)n(Cc3ccccc3)c(=O)c3[nH]cnc32)cc1 (centres undefined) = -0.2%	-26.9%
Shown for CN1C(=O)N(C)C2(c3ccccc3)N(C(C)(C)C)C(=O)NC12c1ccccc1 (centres undefined) = 5.1%	-6.4%

The list continues:
SMILES	VACV Venus inh	Vaccinia mCherry
N#Cc1nc(N)nc(N2CCCCC2)n1	-19.3%	i
O=C1CSC(c2ccccn2)N1c1ccc(F)cc1F (centres undefined)	-6.9%	-2.8%
CCOC(=O)CNC(=O)c1sc(NC(=O)c2ccccc2F)nc1C	-3.1%	-10.6%
CCCNC(=O)c1cc(OC)c(OC)cc1[N+](=O)[O-]	-4.5%	-11.3%
O=S(=O)(NNc1ccc(F)cc1F)c1cccc(Cl)c1	-12.3%	-18.4%
CC1C(=O)C(C)C(c2cccs2)NC1c1cccs1 (centres undefined)	-18.5%	-18.6%
CCOc1ccccc1-n1ccnc(NCc2ccc(F)cc2)c1=O	-1.9%	-1.7%
O=C(N1CCN(c2ccc(F)cc2)CC1)C1(c2cccs2)CCOCC1	-19.7%	-7.2%
NC(=O)C1CCCN(C(=S)NCc2ccc3c(c2)OCO3)C1 (centres undefined)	-8.4%	i
CCOC(=O)CNC(=O)c1ccccc1Br	-10.2%	nt
Cc1ccc2c(c1)C1NC(=S)NC(C)(O2)C1C(=O)Nc1ccc(Cl)cc1 (centres undefined)	-28.6%	i
CCCCCCn1c(N2CCC(C(N)=O)CC2)nc2c1c(=O)[nH]c(=O)n2C	-12.7%	-21.2%
C=CCNC(=O)C1CC2c3ccccc3C1c1ccccc12 (centres undefined)	-12.2%	-15.0%
O=C(COC(=O)CCc1ccc(S(=O)(=O)N2CCCCC2)cc1)Nc1ccc2c(c1)OCO2	-14.2%	nt
COc1ccc(CN(C)C[C@H]2OCCCC[C@@H](C)Oc3ccc(NS(C)(=O)=O)cc3C(=O)N([C@H](C)CO)C[C@@H]2C)cc1	-14.6%	i
CCOC(=O)c1ccc(-n2c(C)nc3c(cnn3-c3ccc(Cl)cc3)c2=O)cc1	16.1%	22.2%
CC(NC(=O)c1ccco1)c1nnc2n1CCN(Cc1ccc(N(C)C)cc1)CC2 (centres undefined)	-6.1%	-11.9%
CCC1(C)Cc2ccccc2-c2nc[nH]c(=O)c21 (centres undefined)	-20.9%	-30.0%
CN1C(=O)c2ccccc2Sc2ccc(NC(=O)Cc3c(F)cccc3Cl)cc21	-29.5%	-25.1%
O=CN1CCN(C(=O)CN2C(=O)c3ccccc3C2=O)CC1	-10.6%	-5.9%
Cc1cc(O)c2c(c1)C(=O)C13C(=C2O)C(=O)[C@H]2[C@@H](O)[C@@H]1[C@H]1[C@H](O)[C@@H]3C(=O)C3=C(O)c4c(O)cc(C)cc4C(=O)C312 (some centres undefined)	?	?
COc1ccc(C)cc1NC(=O)CC1COc2ccccc2O1 (centres undefined)	-15.5%	-9.9%
O=C(COc1ccc(-c2ccccc2)cc1)N1CCN(C(=O)c2cccnc2)CC1	-15.3%	nt
Cc1cccc(N(CC(=O)NC2CC2)S(=O)(=O)c2ccc(Cl)cc2)c1	-1.9%	-11.0%
CCOc1ccc(NS(=O)(=O)c2cc(C(=O)NCCN3CCOCC3)ccc2C)cc1	5.8%	-11.6%
COc1cccc(-c2cc(C(=O)Nc3ccc(C)cc3)[nH]n2)c1	4.9%	-2.4%
COc1ccc2cc(CN(CCO)C(=O)c3ccccc3F)c(=O)[nH]c2c1	-8.1%	-8.9%
CCOC(=O)c1cccc(NC(=O)CCn2cccc2)c1	-8.9%	nt
CCOC(=O)Cn1nnc(-c2ccc(S(C)(=O)=O)cc2)n1	1.1%	-8.5%
O=c1oc(-c2ccco2)nc2ccccc12	-3.9%	i
Cc1ccccc1N1CC(C(=O)Nc2ccc(S(=O)(=O)N3CCOCC3)cc2)CC1=O (centres undefined)	10.4%	-1.8%
O=C(Nc1cc(Cl)cc2c1-c1ccc(Cl)cc1C2O)C(Cl)Cl (centres undefined)	-26.2%	-25.7%
